Assay outcomes (PubChem)
LYPLA2 inh – LYPLA2 inhibitors, primary screen, counter-screen for PME1 inhibitor project, biochemical, fluorescence polarization, FP-Rh probe ABPP. Acyl-protein thioesterase 2 (Homo sapiens), O95372. recombinant LYPLA2. inhibition, % at 5.9 µM. hit rate 0.38% among 320,000;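 active = inhibition above the screen-wide mean plus 3 SD, limit set per campaign, cut at about 26% in these data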;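 also: 0% = LYPLA2 with DMSO and 100% = wells lacking LYPLA2 enzyme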
pPAFAH FP inh – pPAFAH enzyme inhibitors, primary screen, biochemical, fluorescence polarization, human | Platelet-activating factor acetylhydrolase (Homo sapiens), Q13093 | inhibition, % at 3.39 µM | hit rate 1.5% among 330,000 | AID 463082, 2010 | recombinant pPAFAH, FP-rhodamine probe fluorescence polarization;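 active = inhibition above the mean inhibition across the screen plus 3 SD, cut at about 25% in these data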;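 also: inhibitors block binding of the rhodamine activity-based probe so polarization drops; 0% = enzyme with DMSO and 100% = wells lacking pPAFAH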
PAFAH1B3 inh – PAFAH1B3 enzyme inhibitors, primary screen, biochemical, fluorescence polarization, human. recombinant PAFAH1B3, FP-rhodamine probe. hit rate 0.28% among 340,000. inhibition, % at 3.39 µM. Platelet-activating factor acetylhydrolase IB subunit alpha1 (Homo sapiens), Q15102;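 active = inhibition above the screen-wide average of all tested compounds plus 3 SD, cut at about 25% in these data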;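 also: 0% = enzyme with DMSO only and 100% = wells lacking PAFAH1B3 protein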
PAFAH2 inh – PAFAH2 enzyme inhibitors, primary screen, biochemical, fluorescence polarization, human; Platelet-activating factor acetylhydrolase 2, cytoplasmic (Homo sapiens), Q99487; recombinant PAFAH2, FP-rhodamine activity probe; inhibition, % at 3.39 µM; hit rate 0.99% among 340,000;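 active = inhibition above the mean over all tested compounds plus 3 SD, cut at about 30% in these data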;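 also: inhibitors block probe labeling of enzyme so polarization drops; 0% = enzyme with DMSO and 100% = wells lacking PAFAH2 protein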
PAFAH1B2 FP inh – PAFAH1B2 enzyme inhibitors, primary screen, biochemical, fluorescence polarization, human. recombinant PAFAH1B2, FP-rhodamine activity probe. inhibition, % at 3.39 µM. hit rate 1.2% among 340,000. AID 492953, 2010;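 active = inhibition above the mean of all tested compounds plus 3 SD, cut at about 24% in these data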;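 also: 0% = enzyme with DMSO and 100% = wells lacking PAFAH1B2; many of its hits are not listed in these tables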
PREPL inhibitor – PREPL enzyme inhibitors, primary screen, biochemical, fluorescence polarization; hit rate 0.68% among 320,000; inhibition, % at 5.96 µM; recombinant PREPL, fluorescence polarization activity-based probe; in the data active = inhibition above about 43%;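 also: 0% = enzyme with DMSO and 100% = wells lacking enzyme; many of its hits are not listed in these tables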
Target sequence (Q4J6C6 whole entry, looked up): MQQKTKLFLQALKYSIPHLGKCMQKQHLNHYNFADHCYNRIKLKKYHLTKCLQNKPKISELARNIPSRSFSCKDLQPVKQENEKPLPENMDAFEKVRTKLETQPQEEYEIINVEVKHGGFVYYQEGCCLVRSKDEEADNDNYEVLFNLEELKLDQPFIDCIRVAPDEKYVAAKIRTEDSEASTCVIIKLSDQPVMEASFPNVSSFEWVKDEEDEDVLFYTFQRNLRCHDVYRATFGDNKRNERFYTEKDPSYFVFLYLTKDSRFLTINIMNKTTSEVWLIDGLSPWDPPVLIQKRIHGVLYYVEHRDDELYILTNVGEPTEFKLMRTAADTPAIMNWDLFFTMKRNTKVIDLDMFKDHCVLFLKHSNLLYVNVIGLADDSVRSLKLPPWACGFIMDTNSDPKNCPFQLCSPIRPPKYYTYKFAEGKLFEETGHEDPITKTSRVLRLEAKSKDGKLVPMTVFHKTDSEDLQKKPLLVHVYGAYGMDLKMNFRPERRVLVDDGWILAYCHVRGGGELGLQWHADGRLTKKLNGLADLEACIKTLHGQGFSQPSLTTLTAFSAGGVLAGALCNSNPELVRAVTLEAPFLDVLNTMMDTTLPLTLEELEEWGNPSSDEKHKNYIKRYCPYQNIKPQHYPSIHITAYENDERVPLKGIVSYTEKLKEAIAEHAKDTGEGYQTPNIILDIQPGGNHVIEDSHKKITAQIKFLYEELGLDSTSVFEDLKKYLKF
LYPLA1 inh – LYPLA1 inhibitors, primary screen, counter-screen for PME1 inhibitor project, biochemical, fluorescence polarization, FP-Rh probe ABPP. Acyl-protein thioesterase 1 (Homo sapiens), O75608. recombinant LYPLA1. inhibition, % at 5.9 µM. hit rate 0.16% among 320,000;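 active = inhibition above the mean of all tested compounds plus 3 SD, set per campaign, cut at about 14% in these data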;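 also: inhibitors block serine hydrolase probe labeling of LYPLA1 so polarization falls; 0% = enzyme with DMSO and 100% = wells lacking LYPLA1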
PAD4 FP inh – human PAD4 inhibitors, primary screen, biochemical, fluorescence polarization, 1536-well format; Protein-arginine deiminase type-4 (Homo sapiens), Q9UM07; recombinant PAD4, RCA probe fluorescence polarization; inhibition, % at 6.36 µM; hit rate 0.41% among 330,000; AID 485272, 2010;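 active = percent inhibition above a cutoff equal to the mean of all tested compounds plus 3 SD, cut at about 15% in these data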;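 also: 0% = PAD4 with RCA probe and DMSO and 100% = probe without PAD4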
The depositor's hits bear a star. The list is partial, so the mix of outcomes need not match the whole.

#	mol	PAFAH1B2 FP inh	PAFAH1B3 inh	LYPLA2 inh	pPAFAH FP inh
1	O=c1cc(COn2nnc3ccc(C(F)(F)F)cc32)nc2sccn12	2	3	-1	5
2	O=C(CCN1C(=O)c2ccccc2C1=O)OCN1C(=O)c2ccccc2C1=O	7	0	8	3
3	O=C(CCl)NCCN1C(=O)S/C(=C\c2cccnc2)C1=O	-7	-2	-3	-1
4	CCCCOc1ccccc1-c1cc(C(=O)O)[nH]n1	3	4	6	2
5	COC(=O)c1ccc2c(=O)[nH]c(CCl)nc2c1	6	6	-4	3
6	O=C(CSc1nnc(CNC(=O)c2ccccc2F)o1)c1ccc(Cl)cc1	7	1	3	1
7	COc1ccc(NC(=O)COC(=O)c2c(-c3ccccc3)noc2C)cc1	3	0	-9	0
8	COc1cccc(/C=N/Nc2ccc(Cl)nn2)c1	6	8	-4	-1
9	O=C1NCCCC2c3c(cc(Br)c(O)c3Br)OC12N1CCOCC1 (stereo not given)	3	9	4	2
10	CCn1cc(C(=O)OCC(=O)NCc2ccccc2Cl)c(=O)c2ccc(C)nc21	0	3	0	3
11	CCNS(=O)(=O)c1ccc(NC(=O)c2cc(C(F)(F)F)nn2C)cc1	-1	11	2	2
12	O=C(NC1CCOC1)c1cc(COc2cccc(C(F)(F)F)c2)on1 (stereo not given)	6	6	9	3

#	PREPL inhibitor	PAFAH2 inh	LYPLA1 inh	PAD4 FP inh
1	1	-4	1	-1
2	3	-6	3	1
3	6	-1	-5	1
4	4	-2	-1	1
5	-5	-3	-1	-2
6	-18	0	1	-6
7	1	-9	-2	2
8	11	-3	3	-6
9	0	-3	3	0
10	6	35*	1	-4
11	9	5	-2	-1
12	14	-1	-1	-7

3 entries already listed, sorted by heavy-atom count, ascending:
#	mol	PAFAH1B2 FP inh	PAFAH1B3 inh	LYPLA2 inh	pPAFAH FP inh
5	COC(=O)c1ccc2c(=O)[nH]c(CCl)nc2c1	6	6	-4	3
1	O=c1cc(COn2nnc3ccc(C(F)(F)F)cc32)nc2sccn12	2	3	-1	5
6	O=C(CSc1nnc(CNC(=O)c2ccccc2F)o1)c1ccc(Cl)cc1	7	1	3	1

#	PREPL inhibitor	PAFAH2 inh	LYPLA1 inh	PAD4 FP inh
5	-5	-3	-1	-2
1	1	-4	1	-1
6	-18	0	1	-6

More records follow.
#	mol	PAFAH1B2 FP inh	PAFAH1B3 inh	LYPLA2 inh	pPAFAH FP inh
13	COc1ccc(N2C(=O)C(Cl)=C(N3CCCC(C)C3)C2=O)cc1 (stereo not given)	0	4	6	5
14	COc1cc([N+](=O)[O-])ccc1NC(=O)Cn1ccsc1=N	6	9	0	3
15	Cc1oc(-c2ccc(Cl)cc2)cc1C(=O)O	3	1	-10	-1
16	CN(C)C1=C(Cl)C(=O)N(c2ccc(Cl)c(Cl)c2)C1=O	-11	-9	-15	4
17	Cc1cc(C)cc(Oc2c(C(F)(F)F)oc3cc(OCC(=O)O)ccc3c2=O)c1	-2	1	5	3
18	COCC(=O)NC1CCN(CC(=O)Nc2ccc(OC)cc2[N+](=O)[O-])CC1	-3	9	-2	3
19	CON(c1nc(Cl)nc(N(C)C)n1)S(=O)(=O)c1ccc(C)cc1	5	8	-4	-5
20	COCCNC(=O)c1c(N)n(CCCn2ccnc2)c2nc3ccccc3nc12	-3	3	6	1
21	CC1(C)Cc2c(cnn2-c2ccccc2)-c2c1c1ccccc1n2CC(O)CBr (stereo not given)	7	16	-1	9
22	O=C1C=C(NNC(=O)c2cccnc2)CC(c2ccco2)C1 (stereo not given)	4	-5	5	6
23	O=C(CN(Cc1ccccc1)C(=O)CCl)c1cccc(Br)c1	-4	1	-2	-3
24	Cc1nnc(NC(=O)CN2CCN(Cc3c(Cl)cccc3Cl)CC2)s1	6	0	-1	1

#	PREPL inhibitor	PAFAH2 inh	LYPLA1 inh	PAD4 FP inh
13	3	-5	-4	4
14	0	8	1	-1
15	-1	2	-4	-6
16	11	-2	-9	-5
17	11	2	0	-7
18	2	-1	2	0
19	-7	10	0	-3
20	16	-8	5	-10
21	27	7	-1	8
22	1	13	-1	-3
23	-26	8	-1	1
24	-6	-2	0	1

Later entries
#	mol	PAFAH1B2 FP inh	PAFAH1B3 inh	LYPLA2 inh	pPAFAH FP inh
25	CCc1nnc(NC(=O)CSc2nc3cc(OC)c(OC)cc3cc2C)s1	3	0	-7	10
26	CC(=O)N1CCN(Cc2nc3cc(Cl)ccc3c(=O)[nH]2)CC1	2	8	6	5
27	CCCc1cc(=O)[nH]c(SCC(=O)Nc2cc3c(cc2C(C)=O)OCO3)n1	-5	-2	2	-4
28	CCOc1ccc(Cc2nnc(SCC(=O)Nc3ccccc3)n(N)c2=O)cc1	-8	19	1	2

#	PREPL inhibitor	PAFAH2 inh	LYPLA1 inh	PAD4 FP inh
25	0	-1	-3	-2
26	-3	-1	1	3
27	-1	-1	-2	8
28	3	-1	6	-1

Filtered by structure: the compounds so far containing a Cl atom (12)
#	mol	PAFAH1B2 FP inh	PAFAH1B3 inh	LYPLA2 inh	pPAFAH FP inh
3	O=C(CCl)NCCN1C(=O)S/C(=C\c2cccnc2)C1=O	-7	-2	-3	-1
5	COC(=O)c1ccc2c(=O)[nH]c(CCl)nc2c1	6	6	-4	3
6	O=C(CSc1nnc(CNC(=O)c2ccccc2F)o1)c1ccc(Cl)cc1	7	1	3	1
8	COc1cccc(/C=N/Nc2ccc(Cl)nn2)c1	6	8	-4	-1
10	CCn1cc(C(=O)OCC(=O)NCc2ccccc2Cl)c(=O)c2ccc(C)nc21	0	3	0	3
13	COc1ccc(N2C(=O)C(Cl)=C(N3CCCC(C)C3)C2=O)cc1 (stereo not given)	0	4	6	5
15	Cc1oc(-c2ccc(Cl)cc2)cc1C(=O)O	3	1	-10	-1
16	CN(C)C1=C(Cl)C(=O)N(c2ccc(Cl)c(Cl)c2)C1=O	-11	-9	-15	4
19	CON(c1nc(Cl)nc(N(C)C)n1)S(=O)(=O)c1ccc(C)cc1	5	8	-4	-5
23	O=C(CN(Cc1ccccc1)C(=O)CCl)c1cccc(Br)c1	-4	1	-2	-3
24	Cc1nnc(NC(=O)CN2CCN(Cc3c(Cl)cccc3Cl)CC2)s1	6	0	-1	1
26	CC(=O)N1CCN(Cc2nc3cc(Cl)ccc3c(=O)[nH]2)CC1	2	8	6	5

#	PREPL inhibitor	PAFAH2 inh	LYPLA1 inh	PAD4 FP inh
3	6	-1	-5	1
5	-5	-3	-1	-2
6	-18	0	1	-6
8	11	-3	3	-6
10	6	35*	1	-4
13	3	-5	-4	4
15	-1	2	-4	-6
16	11	-2	-9	-5
19	-7	10	0	-3
23	-26	8	-1	1
24	-6	-2	0	1
26	-3	-1	1	3
